Screens (PubChem BioAssay)
Cruzain noTriton: cruzain (T. cruzi) inhibition without detergent; Potency, µM, for inactives: max response, negative = inhibition, usual class: inhibitors; purified cruzain, Z-FR-AMC fluorescence, no detergent; hit rate 2.3% among 200,000; AID 1476; active means well fitted curve in the direction sought with a large enough effect; inconclusive means small, poorly fitted or top-dose-only effect, or another doubt; inactive means no such curve, though single readings can be large; an effect the other way counts as inactive or inconclusive;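 further: plate controls were enzyme without inhibitor for no effect and buffer without enzyme for full effect; nearly all actives have a fitted effect of over 40% in size; top concentration of the series not given in the record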
Target sequence (P25779 123-467 limits assumed): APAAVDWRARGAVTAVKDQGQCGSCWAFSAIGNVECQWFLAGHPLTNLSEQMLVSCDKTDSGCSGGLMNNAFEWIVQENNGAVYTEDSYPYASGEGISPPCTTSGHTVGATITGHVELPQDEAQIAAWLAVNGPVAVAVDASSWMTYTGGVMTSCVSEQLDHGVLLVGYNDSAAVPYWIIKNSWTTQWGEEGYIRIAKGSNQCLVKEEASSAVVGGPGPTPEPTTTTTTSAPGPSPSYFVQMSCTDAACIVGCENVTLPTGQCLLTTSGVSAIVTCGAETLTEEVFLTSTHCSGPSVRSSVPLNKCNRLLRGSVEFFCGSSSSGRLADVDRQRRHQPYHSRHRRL
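Purified cruzain at 1.5 nM, pre-incubated 15 min with compound at room temperature in 100 mM sodium acetate pH 5.5, 5 mM DTT, 0.00005% Triton X-100. Reaction started with 2 uM Z-FR-AMC; AMC fluorescence increase over 60 s gives rate.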
RE007 growth inh: less growth of the S. pombe RE007 Vpr strain; AID 651644; hit rate 0.21% among 360,000; Potency, µM (top dose mostly 92.2 µM), for inactives: at the highest dose activity change, negative = less growth; S. pombe RE007 Vpr strain, BacTiter-Glo ATP luminescence, 24 h; control for the full effect not named in the record; active = well fitted falling curve with a large enough effect; inconclusive = small, poorly fitted or top-dose-only effect; inactive = no such curve, though single readings can be large or run the other way;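 further: on the % scale 0 is the no-effect control and ±100 the full control effect; nearly all actives have a fitted effect of over 50% in size; the assay follows cell death caused by Vpr and the record does not say whether a fall means rescue or toxicity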
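Fission yeast RE007 carrying one integrated HIV-1 vpr copy, seeded at OD 0.01 in PMG+AL medium with 23 nL pinned compound. Grown 24 h at 30 degrees; viability read by BacTiter-Glo luminescence after 5 min.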
Marburg entry inh: blocks Marburg virus binding to or entry into cells. Marburg virus pseudotyped entry inhibition, cell reporter; control for the full effect not named in the record; about a third of the inactives were read at about 46 µM. Potency, µM (titrated, usually from 37.8 µM), for the others: at the top dose activity change, negative = inhibition, most hits filed as inhibitors. hit rate 1.8% among 300,000. AID 540276; active = well fitted inhibition curve with a large enough effect; inconclusive = small, poorly fitted or top-dose-only effect, or effect the other way; inactive = flat fitted curve, though single readings scatter; tested in HEK293 cells; about a fifth of its hits are not listed in these tables; further: on the % scale 0 is the no-effect control and ±100 the full control effect; luciferase read-out
SARS PLP yeast: inhibitors of SARS-CoV papain-like protease in yeast | S. cerevisiae expressing SARS-CoV PLpro, growth rescue; control for the full effect not named in the record | Potency, µM (highest dose often 32.9 µM), for inactives: top-dose activity, positive = growth rescue | hit rate 0.19% among 330,000 | AID 485353; further: 0% is about no effect; nearly all actives have a fitted effect of over 55% in size; growth read by luminescence after 48 h
Cruzain Triton: blocks cruzain activity in presence of Triton detergent; P25779; purified cruzain, Z-FR-AMC fluorescence, 0.01% Triton; Potency, µM, for the others: max response, negative = inhibition, hits mostly inhibitors; hit rate 0.43% among 200,000; AID 1478; active means well fitted curve in the direction sought with a large enough effect; inconclusive means small, poorly fitted or top-dose-only effect, or another doubt; inactive means no such curve, though single readings can be large; an effect the other way counts as inactive or inconclusive;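 further: plate controls were neutral wells for no effect and buffer without enzyme for full effect; nearly all actives have a fitted effect of over 40% in size; top concentration of the series not given in the record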
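Enzyme 1.5 nM, Z-FR-AMC 2 uM, NaOAc 100 mM pH 5.5, DTT 5 mM, Triton X-100 0.01%; 15 min RT compound preincubation; kinetic ex360/em450, 60 s delta.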
NS1 function inh: influenza NS1 inhibition; hit rate 0.4% among 270,000; S. cerevisiae slowed by influenza A NS1, growth recovery by OD600; Potency, µM (titrated, usually from 46.1 µM), for inactives: at the highest dose activity, positive = more growth; AID 2326; further: actives are rising curves; nearly all actives have a fitted effect of over 50% in size
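Compounds were scored for reversing the slow growth caused by influenza A NS1 in S. cerevisiae, measured by optical density at 600 nm. Assay medium contained 2% galactose at pH 6.0; NS1-free yeast of the same strain were the positive control.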
Lassa entry inh: inhibitors of Lassa virus binding or cell entry | Lassa virus pseudotype entry inhibition, cell reporter; control for the full effect not named in the record | Potency, µM (titrated, usually from 37.9 µM), for inactives: top-dose activity change, negative = inhibition, hits mostly inhibitors | hit rate 1.2% among 300,000; active means well fitted inhibition curve with a large enough effect; inconclusive means small, poorly fitted or top-dose-only effect, or effect the other way; inactive means flat fitted curve, though single readings scatter; tested in HEK293 cells; further: on the % scale 0 is the no-effect control and ±100 the full control effect; nearly all actives have a fitted effect of over 50% in size; luciferase read-out
2A StopGo: lowers the luciferase signal of an FMDV 2A StopGo reporter | human cells with a luciferase reporter of 2A StopGo recoding; control for the full effect not named in the record | Potency, µM (series often up to 57.9 µM), for inactives: at the highest dose signal change, negative = less light | hit rate 1.2% among 410,000 | AID 1159524; active = well fitted falling curve with a large enough effect; inconclusive = small, poorly fitted or top-dose-only effect; inactive = no such curve, though single readings can be large or run the other way; tested in HEK293T cells; further: on the % scale 0 is the no-effect control and ±100 the full control effect; nearly all actives have a fitted effect of over 45% in size; luciferase light after 4 h
An asterisk follows results filed as active; ? = inconclusive; . = not tested or not shown; & = joins results of further samples; [ ] = remark or other dose. Unless noted, the call rests on the fitted dose curve; in most records, active means well fitted rising curve with a large enough effect; inconclusive means small, poorly fitted or top-dose-only effect; inactive means no such curve, though single readings can be large or run the other way. Potency means the concentration at half of the fitted maximal effect.

No.	Molecule	2A StopGo	Cruzain Triton	SARS PLP yeast	RE007 growth inh
1	O=C(CCl)Nc1cc(S(=O)(=O)N2CCOCC2)ccc1N1CCOCC1	?	.	-1%	12%
2	Cc1cccc(NC(=O)CCC(=O)N/N=C/c2ccncc2)c1	7%	-2.1%	16%	25%
3	Cc1cccc(-c2n[nH]c(=S)n2C)c1	-5%	.	14%	-1%
4	CCn1c(COc2cccc(C)c2C)nnc1SCC(=O)N1CCN(c2ccc(OC)cc2)CC1	?	-1.2%	4%	-2%
5	COC(=O)c1cc(NC(=O)c2cc(C(C)(C)C)nn2Cc2ccc(F)cc2)ccc1N1CCOCC1	?	.	-3%	15%
6	CCOCCCNC(=S)NCCCNc1nc2cc3c(cc2cc1C#N)OCO3	.	?	-6%	-20%
7	COc1ccc(Oc2nc(C)cc(C)c2S(C)(=O)=O)cc1	-24%	0.7%	3%	?
8	COc1cc(C(=O)O)nc(OC)n1	-6%	.	1%	8%
9	O=C1NCCN1C(=O)c1ccco1	-18%	6.1%	-2%	-4%
10	Cc1ccc2nccc(C(=O)N3CCCC(Nc4ccc(F)cc4)C3)c2c1 (stereo unspecified)	-3%	.	-3%	2%
11	CCN(C(=O)Cn1nc(Cc2ccncc2)c2ccccc2c1=O)c1cccc(C(F)(F)F)c1	-15%	-4.2%	.	.
12	Nc1c(C(=O)NCCc2ccccc2)c2nc3ccccc3nc2n1CCN1CCOCC1	.	-15%	-21%	-3%

No.	Marburg entry inh	Lassa entry inh	NS1 function inh	Cruzain noTriton
1	0%[46.1 µM]	-25%	.	.
2	?	-17%	2%	-10%
3	11%	25%	.	.
4	-24%	?	14%	?
5	.	.	?	.
6	-20%	1%	3%	?
7	0%	-2%	-6%	-1%
8	3%[46.1 µM]	3%	.	.
9	31%	1%	-1%	-11%
10	-2%	0%	-4%	.
11	-1%[46.1 µM]	8%[46.1 µM]	.	19%
12	?	-28%	-126%	?

Brought forward from above: two entries, followed by the next part.
No.	Molecule	2A StopGo	Cruzain Triton	SARS PLP yeast	RE007 growth inh
11	CCN(C(=O)Cn1nc(Cc2ccncc2)c2ccccc2c1=O)c1cccc(C(F)(F)F)c1	-15%	-4.2%	.	.
12	Nc1c(C(=O)NCCc2ccccc2)c2nc3ccccc3nc2n1CCN1CCOCC1	.	-15%	-21%	-3%
13	C=CCN(CC=C)S(=O)(=O)c1ccc(F)cc1	18%	-1.3%	.	-13%
14	COc1ccc(N2CCn3c2nc2c3c(=O)n(CCN3CCOCC3)c(=O)n2C)cc1	.	5.1%	6%	.
15	COC(=O)c1ccccc1N=Nc1c(C)[nH][nH]c1=O	-8%	.	1%	-7%
16	COc1ccc(Cl)cc1-c1nc(N)nc(NC2CCCCC2)n1	-1%	-2.6%	-8%	1%
17	Cc1occc1C(=O)NNC(=O)c1ccccc1C(=O)O	41%[activator]	.	-1%	15%
18	Cc1[nH]c(=O)c(C#N)c(C)c1CCC(=O)N(C)CC(=O)Nc1ccc(Cl)c(Cl)c1	-9%	.	0%	5%
19	O=C(c1cccs1)N1CCCc2cc(NS(=O)(=O)c3ccc(Cl)cc3)ccc21	-16%	-4.5%	.	.
20	CCc1ccccc1NC(=O)C1C2C=CC(O2)C1C(=O)O (stereo unspecified)	-2%	.	-18%	-10%
21	COC(=O)CCC(=O)N1CCCC(CNS(=O)(=O)c2ccc(OC)cc2)C1 (stereo unspecified)	-2%	.	1%	13%
22	O=C(CCCN1C(=O)/C(=C/c2ccccc2OC(F)F)SC1=S)Nc1cccnc1	?	.	3%	-1%
23	C=CCNCC(=O)NN=C(c1ccccc1)c1ccccc1	-17%	-0.6%	0%	-18%
24	COc1ccc2cc(C3(C)NC(=O)NC3=O)ccc2c1 (stereo unspecified)	-9%	1.3%	-1%	3%

No.	Marburg entry inh	Lassa entry inh	NS1 function inh	Cruzain noTriton
11	-1%[46.1 µM]	8%[46.1 µM]	.	19%
12	?	-28%	-126%	?
13	13%	9%	-9%	-2%
14	.	.	13%	-2%
15	.	.	-2%	.
16	?	-10%	-35%	1%
17	?	?	7%	.
18	?	0%[46.1 µM]	12%	.
19	.	?	.	9%
20	1%[46.1 µM]	10%[46.1 µM]	23%	.
21	3%[46.1 µM]	-2%[46.1 µM]	0%	.
22	?	?	.	.
23	-29%[46.1 µM]	-8%	-3%	-5%
24	25%	1%	-4%	-1%

Next records follow.
No.	Molecule	2A StopGo	Cruzain Triton	SARS PLP yeast	RE007 growth inh
25	CCCN1CCC(=O)N(CCOc2ccccc2)CC1	13%	.	-1%	1%
26	CCCN(Cc1ccccc1)C(=S)Nc1ccc(C(C)=O)cc1	22%	.	-1%	-4%
27	S=C(c1ccccc1)N1CCN(C(=S)c2ccccc2)CC1	?	-7.3%	?	-4%
28	CCOC(=O)c1cc(C(=O)c2cc(Br)ccc2O)coc1=N	-18%	.	1%	9%
29	O=c1cc(CSc2ccccc2)nc(-c2ccccc2)[nH]1	-10%	.	1%	1%
30	CCN(CC)CCOC(=O)c1ccc(NC(=O)/C=C/c2cccs2)cc1	4%	-7.5%	10%	-22%
31	Cc1ccc2onc(CNC(=O)NCc3cccc(Cl)c3)c2c1	-5%	-2.2%	.	.
32	Cc1c(Cl)cccc1NC(=O)Cn1cnc(S(=O)(=O)N2CCCC2)c1	-15%&-25%	-0.8%	5%	-4%
33	O=C(CN1CCN(S(=O)(=O)c2ccccc2)CC1)Nc1ccc(Cl)cn1	-27%	.	0%	0%
34	C#CCn1cc(/C=N/Nc2nc3ccccc3[nH]2)c2ccccc21	-16%	-22%	17%	-4%
35	CN(CC1COc2ccccc2O1)C(=O)c1cccc(S(=O)(=O)N2CCCC2)c1 (stereo unspecified)	-14%	.	4%	-9%
36	Cc1cccc(N2CCN(c3ncnc4onc(-c5ccc(F)cc5)c34)CC2C)c1 (stereo unspecified)	?	-3.8%	.	.

No.	Marburg entry inh	Lassa entry inh	NS1 function inh	Cruzain noTriton
25	.	.	7%	.
26	?	?	.	.
27	4%	9%	-3%	12%
28	12%[46.1 µM]	-17%	.	.
29	-2%[46.1 µM]	1%	.	.
30	?	4%	-4%	-3%
31	.	17%[46.1 µM]	.	-5%
32	-27%&-27%[46.1 µM]	5%&-1%[46.1 µM]	2%	10%
33	.	.	-3%	.
34	?	?	?	32µM*
35	-19%	6%	.	.
36	.	-10%[46.1 µM]	.	8%

Some of the entries so far, with one line to a screen.
26) CCCN(Cc1ccccc1)C(=S)Nc1ccc(C(C)=O)cc1
32) Cc1c(Cl)cccc1NC(=O)Cn1cnc(S(=O)(=O)N2CCCC2)c1
screen / no.	26	32
2A StopGo	22%	-15%&-25%
Cruzain Triton	.	-0.8%
SARS PLP yeast	-1%	5%
RE007 growth inh	-4%	-4%
Marburg entry inh	?	-27%&-27%[46.1 µM]
Lassa entry inh	?	5%&-1%[46.1 µM]
NS1 function inh	.	2%
Cruzain noTriton	.	10%

New compounds follow:
No.	Molecule	2A StopGo	Cruzain Triton	SARS PLP yeast	RE007 growth inh
37	CN(c1ccccc1)S(=O)(=O)c1nnc(NC(=O)C2CCCCC2)s1	-18%&-20%	-7.1%	2%	10%
38	Cc1cc(C(=O)OCC(=O)Nc2ccc(S(=O)(=O)N3CCOCC3)cc2)c(C)o1	-7%	-1.5%	-4%	6%
39	Cc1[nH][nH]c(=O)c1C(c1ccccc1[N+](=O)[O-])C(C#N)C#N (stereo unspecified)	-23%	.	-1%	-9%
40	O=C(NNC(=O)c1cccs1)c1csc(N2CCOCC2)n1	-17%	.	2%	-12%
41	O=C(/C=C/c1ccc(Cl)cc1)N(Cc1cccs1)C1CCS(=O)(=O)C1 (stereo unspecified)	-20%	.	1%	-11%
42	COc1cccc(C(C(=O)NCC2CCCO2)N(C(=O)Cn2nnc3ccccc32)c2ccc(NC(C)=O)cc2)c1OC (stereo unspecified)	7%	.	2%	9%
43	COc1cccc(/C=C2\SC(=S)N(CCC(=O)Nc3ccc(O)cc3)C2=O)c1	38%[activator]	.	-6%	34%
44	Cc1ccccc1Nc1nc(N)nc(CSCc2c(C)noc2C)n1	?	0.3%	6%	5%
45	COc1ccc(S(=O)(=O)N(C)CC(=O)Nc2ccccc2C(F)(F)F)cc1OC	-9%	3.8%	0%	8%
46	O=C(Cc1ccc(NC2=NC3CS(=O)(=O)CC3S2)cc1)N1CCN(c2ccc(F)cc2)CC1 (stereo unspecified)	-16%	.	4%	-18%
47	CN(C)c1ccc(NC(=O)CSc2nc3ccsc3c(=O)n2CCCCCC(=O)O)cc1	5%	2.7%	.	.
48	CCOC(=O)C1CCN(Cc2oc(CO)cc(=O)c2O)CC1	6%	2.8%	16%	1%
49	CCOC(=O)c1ccc(N2C(=O)c3n[nH]c(-c4cccs4)c3C2c2ccc(OC)cc2OC)cc1 (stereo unspecified)	?	-3.5%	.	.
50	COC(c1ccccc1)c1nnc(CCC(=O)N2CCCCCCC2)o1 (stereo unspecified)	18%	.	-1%	9%
51	O=C(Nc1cc(Br)ccc1O)C1CC(c2c(F)cccc2Cl)=NO1 (stereo unspecified)	28%	.	4%	7%

No.	Marburg entry inh	Lassa entry inh	NS1 function inh	Cruzain noTriton
37	.	2%[46.1 µM]	-4%	-1%
38	0%	1%	-6%	4%
39	0%[46.1 µM]	1%	.	.
40	12%	0%	.	.
41	.	.	7%	.
42	10%[46.1 µM]	?	-16%	.
43	.	.	6%	.
44	-2%	30%	1%	3%
45	?	4%	-8%	4%
46	.	.	6%	.
47	.	-1%[46.1 µM]	.	14%
48	12%	.	-5%	15%
49	?	?	.	-23%
50	?	10%[46.1 µM]	7%	.
51	.	.	27%	.
